Cruzain inh noDet: inhibitors of Trypanosoma cruzi cruzain without detergent; purified cruzain, Z-FR-AMC fluorescence, no detergent; P25779; actives 2.3% (n = 200,000); Potency, µM, for inactives: max response, negative = inhibition, actives largely listed as inhibitors; AID 1476;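 also: plate controls were enzyme without inhibitor for no effect and buffer without enzyme for full effect; nearly all actives have a fitted effect of over 40% in size; top concentration of the series not given in the record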
Target sequence (P25779 123-467 limits assumed): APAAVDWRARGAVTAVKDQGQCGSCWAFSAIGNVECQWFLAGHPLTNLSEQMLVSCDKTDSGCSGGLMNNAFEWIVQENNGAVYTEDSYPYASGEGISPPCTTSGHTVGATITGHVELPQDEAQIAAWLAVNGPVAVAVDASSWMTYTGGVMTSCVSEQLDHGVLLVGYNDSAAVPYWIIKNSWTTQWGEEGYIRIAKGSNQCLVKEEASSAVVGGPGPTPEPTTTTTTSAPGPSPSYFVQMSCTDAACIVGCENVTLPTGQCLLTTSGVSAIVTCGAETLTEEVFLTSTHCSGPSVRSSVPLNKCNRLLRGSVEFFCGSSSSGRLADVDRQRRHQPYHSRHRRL
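Detergent-free condition (0.00005% Triton X-100) in acetate buffer pH 5.5 with DTT. 1.5 nM enzyme and compound were pre-mixed 15 min, then 2 uM Z-FR-AMC substrate added; reaction progress from fluorescence change between first and third reads (60 s).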
Lassa entry inh: Lassa virus entry inhibition. Lassa virus pseudotype entry inhibition, cell reporter; control for the full effect not named in the record. Potency, µM (titrated, usually from 37.9 µM), without a hit: at the highest dose activity change, negative = inhibition, actives largely listed as inhibitors. actives 1.2% (n = 300,000); active means well fitted inhibition curve with a large enough effect; inconclusive means small, poorly fitted or top-dose-only effect, or effect the other way; inactive means flat fitted curve, though single readings scatter; tested in HEK293 cells; also: % is scaled to controls: 0 for no effect and ±100 for the full control effect; nearly all actives have a fitted effect of over 50% in size; luciferase read-out
Cruzain inh Det: blocks cruzain activity in presence of Triton detergent; P25779; purified cruzain, Z-FR-AMC fluorescence, 0.01% Triton; Potency, µM, without a hit: max response, negative = inhibition, usual class: inhibitors; actives 0.43% (n = 200,000); AID 1478;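 also: plate controls were neutral wells for no effect and buffer without enzyme for full effect; nearly all actives have a fitted effect of over 40% in size; top concentration of the series not given in the record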
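Purified cruzain (1.5 nM final) was preincubated with compounds for 15 min at room temperature in 100 mM sodium acetate pH 5.5, 5 mM DTT, 0.01% Triton X-100. Reaction started with 2 uM Z-FR-AMC; AMC fluorescence change over 60 s gave activity.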
SARS PLpro yeast: SARS-CoV PLP inhibition in yeast. AID 485353. Potency, µM (titrated, usually from 32.9 µM), inactives show at the highest dose activity, positive = growth rescue. S. cerevisiae expressing SARS-CoV PLpro, growth rescue; control for the full effect not named in the record. actives 0.19% (n = 330,000); active means well fitted rising curve with a large enough effect; inconclusive means small, poorly fitted or top-dose-only effect; inactive means no such curve, though single readings can be large or run the other way; also: 0% is about no effect; nearly all actives have a fitted effect of over 55% in size; growth read by luminescence after 48 h
2A StopGo: FMDV 2A StopGo reporter, luciferase signal; actives 1.2% (n = 410,000); Potency, µM (top dose mostly 57.9 µM), for inactives: top-dose signal change, negative = less light; human cells with a luciferase reporter of 2A StopGo recoding; control for the full effect not named in the record; active = well fitted falling curve with a large enough effect; inconclusive = small, poorly fitted or top-dose-only effect; inactive = no such curve, though single readings can be large or run the other way; tested in HEK293T cells; also: % is scaled to controls: 0 for no effect and ±100 for the full control effect; nearly all actives have a fitted effect of over 45% in size; luciferase light after 4 h
Marburg entry inh: Marburg virus entry inhibition | Marburg virus pseudotyped entry inhibition, cell reporter; control for the full effect not named in the record; about a third of the inactives were read at about 46 µM | Potency, µM (highest dose often 37.8 µM), for inactives: top-dose activity change, negative = inhibition, hits mostly inhibitors | actives 1.8% (n = 300,000); active = well fitted inhibition curve with a large enough effect; inconclusive = small, poorly fitted or top-dose-only effect, or effect the other way; inactive = flat fitted curve, though single readings scatter; tested in HEK293 cells; about a fifth of its hits are not listed in these tables; also: % is scaled to controls: 0 for no effect and ±100 for the full control effect; luciferase read-out
RE007 growth inh: less growth of the S. pombe RE007 Vpr strain. AID 651644. S. pombe RE007 Vpr strain, BacTiter-Glo ATP luminescence, 24 h; control for the full effect not named in the record. actives 0.21% (n = 360,000). Potency, µM (highest dose often 92.2 µM), without a hit: top-dose activity change, negative = less growth; active = well fitted falling curve with a large enough effect; inconclusive = small, poorly fitted or top-dose-only effect; inactive = no such curve, though single readings can be large or run the other way;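 also: % is scaled to controls: 0 for no effect and ±100 for the full control effect; nearly all actives have a fitted effect of over 50% in size; the assay follows cell death caused by Vpr and the record does not say whether a fall means rescue or toxicity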
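Fission yeast strain RE007, carrying one chromosomally integrated HIV-1 vpr copy, was seeded at OD 0.01 in PMG+AL medium with 23 nL pinned compound. After 24 h at 30 °C and 99% humidity, viability was read by BacTiter-Glo luminescence.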
NS1 function inh: inhibitors of influenza NS1 protein function. S. cerevisiae slowed by influenza A NS1, growth recovery by OD600. Potency, µM (doses to about 46.1 µM), inactives show at the highest dose activity, positive = more growth. actives 0.4% (n = 270,000). AID 2326; active means well fitted rising curve with a large enough effect; inconclusive means small, poorly fitted or top-dose-only effect; inactive means no such curve, though single readings can be large or run the other way; also: nearly all actives have a fitted effect of over 50% in size
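Read-out: OD600 growth recovery of NS1-expressing budding yeast. Cells grown overnight at 30C in -URA glucose medium, washed, resuspended and diluted 1:100 in 2% galactose assay medium, pH 6.0. Same strain lacking NS1 served as positive control.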
The depositor's hits bear a star; ? = inconclusive; . = not tested or not shown; & = joins results of further samples; [ ] = another dose, or the depositor's remark. Unless noted, calls follow the shape of the dose curve; as a rule, active = well fitted curve in the direction sought with a large enough effect; inconclusive = small, poorly fitted or top-dose-only effect, or another doubt; inactive = no such curve, though single readings can be large; an effect the other way counts as inactive or inconclusive. Potency is read from the fitted curve at half-maximal effect.

Below each compound: Lassa entry inh	SARS PLpro yeast	2A StopGo	Cruzain inh Det	NS1 function inh	RE007 growth inh	Marburg entry inh	Cruzain inh noDet
- CC(C)N(C(=O)COC(=O)c1cc(Cl)cc(Cl)c1N)C(C)C
    -31%	-6%	-20%	-15%	-3%	20%	?	3%
- O=C(NCc1nnnn1-c1ccc(Cl)cc1)c1ccc(Br)o1
    9%	0%	-3%	.	.	-5%	10%	.
- CCC(C)(C)n1nnnc1C(c1cccs1)N1CC=C(c2ccc(F)cc2)CC1 (centres undefined)
    ?	-12%	.	-8.6%	-95%	14%	15µM*	-28%
- COCCn1c(N)c(Sc2ccccc2[N+](=O)[O-])c(=O)[nH]c1=O
    .	1%	2%	.	?	-3%	.	.
- COc1ccc(NS(=O)(=O)c2ccc(C)c(C(=O)O)c2)cc1
    ?	9%	.	3.5%	10%	4%	9%	11%
- C=Cc1ccc(CSc2nc(-c3ccc(OC)cc3)nc3c2Cc2c(CO)cnc(C)c2O3)cc1
    -5%[46.1 µM]	.	-22%	-2.4%	.	.	.	3%
- Cc1c(NC(=S)NC(=O)C(C)(C)C)c(=O)n(-c2ccccc2)n1C
    10%	11%	-10%	0.6%	1%	?	-21%	4%
- CCS(=O)(=O)Nc1ccc(-c2nnc(SCC(=O)c3cccc(OC)c3)o2)cc1
    -17%	-4%	-13%	-3.6%	2%	-5%	-14%[46.1 µM]	-2%
- O=C(Cn1nc(-c2ccccc2Cl)ccc1=O)Nc1ccc(Br)cc1
    7%	-3%	-1%	.	-6%	1%	1%[46.1 µM]	.
- CCOc1ccc(C2NC(=O)c3n[nH]c(C)c32)cc1 (centres undefined)
    .	5%	-13%	0.5%	?	1%	.	0%
- COc1ccc(NC(=O)CCc2c(C)nc3nc(CNC(=O)OC(C)(C)C)nn3c2C)cc1OC
    0%[46.1 µM]	.	7%	-0.3%	.	.	-8%[46.1 µM]	11%
- CCC(=O)C1=C(c2cccc([N+](=O)[O-])c2)N(C(=O)CC)n2c(nnc2-c2ccccc2)S1
    -2%[46.1 µM]	.	-12%	5.2%	.	.	.	6%
- COc1ccc(NC(=S)N2CCC(N(C)CC3CCCO3)CC2)cc1Cl (centres undefined)
    20%	-8%	-12%	-1.5%	6%	12%	?	-11%
- CC(=O)Nc1ccc(NC(=S)Nc2ccc(Br)cc2)cc1
    -27%	-1%	16%	.	-6%	-11%	?	.
- O=C(COC(=O)c1cc2c(s1)CCC2)Nc1ccc(F)cc1
    -19%	-4%	-5%	-6.8%	14%	-23%	?	-10%
- COc1cc(C2NC(=O)NC(C)=C2C(=O)Nc2cccc(C)c2C)cc(OC)c1OC (centres undefined)
    3%	7%	1%	-0.8%	5%	3%	1%	-20%
- Cc1cc2oc(=O)c(CC(=O)NCCc3ccccc3F)c(C)c2c2occ(C(C)(C)C)c12
    10%[46.1 µM]	.	-5%	-6.9%	.	.	9%[46.1 µM]	-20%
- Cc1cc(NCCN2CCOCC2)n2nc(C)c(-c3ccccc3)c2n1
    -1%	-2%	-16%	-0.7%	?	0%	-26%	-10%
- Cc1cc(C(=O)CSc2nc(N)cc(=O)[nH]2)c(C)n1-c1cccc(F)c1
    -3%	-4%	?	-6.7%	3%	-17%	?	?
- O=C(CN(CC1CCCO1)C(=O)CNS(=O)(=O)c1ccc(Cl)cc1)NCC1CCCO1 (centres undefined)
    -4%	-11%	.	-0.1%	-3%	-1%	1%	10%
- CC1=CC(=C(C#N)C#N)C=C(C)N1CCN1CCN(C(=O)Nc2ccc(Cl)c(Cl)c2)CC1
    -14%	0%	-20%	-4.0%	-3%	14%	-13%	-11%
- O=S(=O)(NCc1ccccc1Cl)c1ccc(-n2cnnn2)cc1
    .	1%	32%[activator]	.	-34%	-12%	-17%[46.1 µM]	.
- CC(C)CNCC(=O)N1c2ccccc2Sc2ccccc21
    -5%	?	-6%	0.4%	15%	-18%	.	4%
- COc1ccccc1N(C)S(=O)(=O)c1ccc(Cl)c(C(=O)N2CCC(C(N)=O)CC2)c1
    -13%	0%	-17%	.	.	-3%	13%[46.1 µM]	.
- COc1ccccc1/C=C/C(=O)NCC(=O)N/N=C/c1ccc(C(=O)O)cc1
    5%[46.1 µM]	0%	2%	.	3%	13%	-5%[46.1 µM]	.
- CC1CCCN(CC(=O)Nc2ccc(S(=O)(=O)NC3CCCCC3)cc2)C1 (centres undefined)
    ?	-2%	38%	0.2%	-7%	14%	?	-5%
- Cc1ccccc1OCCCCN1CCCCC1
    -18%[46.1 µM]	2%	-9%	.	1%	-4%	2%[46.1 µM]	.
- Cn1c(SCc2nc(-c3ccc(Cl)cc3)no2)nnc1-c1ccccc1
    19%	-7%	-23%	-8.7%	-63%	-10%	6%	-9%
- COc1ccc(C2=NCC(CSc3nccc(=O)[nH]3)S2)cc1 (centres undefined)
    -4%	4%	31%[activator]	-7.2%	-3%	1%	-5%[46.1 µM]	-9%
- O=C(O)c1cccc(Cn2c(Cl)c(/C=N/Nc3ccccc3)sc2=O)c1
    -29%[46.1 µM]	0%	8%	.	.	19%	?	.
- O=C(Nc1ccc(Cl)cc1)C1CCCN1C(=O)NCc1ccccc1 (centres undefined)
    9%[46.1 µM]	-7%	-3%	.	-9%	2%	-19%[46.1 µM]	.
- Cc1cc(C)cc(NC(=S)Nc2cccc3cnccc23)c1
    12%[46.1 µM]	-3%	7%	.	.	-23%	-29%[46.1 µM]	.
- CCN(CC)S(=O)(=O)c1ccc2c(c1)N(CC(=O)N1CCN(c3cccc(C)c3)C(C)C1)C(=O)CO2 (centres undefined)
    -2%[46.1 µM]	.	-22%	-2.2%	.	.	.	?
- Cn1c(/C(C#N)=C(\O)COc2ccc3ccccc3c2)nc2ccccc21
    7%	2%	-4%	6.1%	8%	17%	0%	-5%
- O=C(Nc1c(Cl)cc(Cl)cc1C(=O)NCCN1CCOCC1)c1ccc(Cl)cc1Cl
    ?	1%	12%	-5.1%	-1%	3%	-1%	-14%
- CCOc1ccc(-n2c(CCC(=O)O)ccc2-c2ccc(Br)cc2)cc1
    -21%[46.1 µM]	.	-28%	-4.5%	.	.	27%[46.1 µM]	-16%
- c1ccc(CCNc2ncnc3sccc23)nc1
    ?	-15%	-10%	.	-4%	-16%	?	.
- CSc1ccc(/C=N/NC(=O)c2sccc2C)cc1
    ?	-27%	-6%	-2.8%	9%	-21%	10µM*	?
- O=C(c1ccc2c(c1)OCO2)C1CCCN(Cc2ccc(OC(F)F)cc2)C1 (centres undefined)
    .	-4%	?	.	1%	-24%	.	.
- CC(C(=O)Nc1ccc2c(c1)OCCO2)n1nnc(-c2ccccc2)n1 (centres undefined)
    -8%	-1%	0%	.	-2%	0%	9%&9%	.
- Cc1ccc(S(=O)(=O)/N=C2/NC(=O)/C(=C/c3ccncc3)S2)cc1
    12%	-13%	.	2.6%	-3%	.	17%	3%
- COc1ccccc1-n1c(-c2ccccc2Cl)nc2ccccc2c1=O
    .	-2%	-27%	.	-9%	12%	.	.
- O=C(Cn1nnc(-c2ccccc2NC(=O)c2ccccc2)n1)Nc1ccc2c(c1)OCCO2
    -6%	0%	-1%	1.7%	-5%	1%	-7%	?
- O=C(c1ccco1)N1CCN(S(=O)(=O)c2ccc(S(=O)(=O)NC3CCCC3)cc2)CC1
    11%	2%	-20%	-0.2%	-3%	-1%	-10%&3%	3%
- CC1CCCN(S(=O)(=O)c2cc(C(=O)NCCc3ccccc3)n(C)c2)C1 (centres undefined)
    -3%[46.1 µM]	.	21%	-3.2%	.	.	.	3%
- CCOC(=O)c1ccccc1NC(=O)Cn1cnc2c(nnn2-c2ccc(C)cc2)c1=O
    .	7%	-18%	-2.5%	-52%	-2%	-1%	-7%
- OCCC1CN(Cc2cnc(N3CCOCC3)s2)CCN1C1CCCC1 (centres undefined)
    .	-1%	-17%	.	?	-10%	.	.
- CC(C)OC(=O)CSc1nnc(Cc2ccccc2)n1CC1CCCO1 (centres undefined)
    6%	1%	5%	5.4%	-5%	2%	-6%[46.1 µM]	0%
- CS(=O)(=O)c1ccccc1C(=O)Nc1cc2c(cc1C(=O)O)OCCCO2
    10%	-1%	-22%	.	-10%	8%	29%[46.1 µM]	.
- CCOC(=O)Cc1csc(NC(=O)CSc2nncn2C)n1
    7%	0%	18%	2.1%	5%	10%	2%	-6%
- COc1ccccc1C(=O)Nc1nnc(-c2ccc(F)cc2)o1
    .	-5%	32%[activator]	1.6%	-75%	11%	.	1%
- Cc1ccc2cc(C#N)c(SCC(=O)NCc3ccco3)nc2c1
    0%	7%	11%	-5.7%	-7%	18%	?	?
- CCc1ccccc1N(CC)C(=O)c1c(C)oc2ncn(C)c(=O)c12
    28%[46.1 µM]	.	7%	-1.1%	.	.	.	1%
- CCOc1ccc(C2=Nn3c(nnc3-c3ccco3)SC2)cc1
    2%	-6%	4%	-3.2%	0%	13%	-19%	-21%
- COCCNC(=O)c1ccc(-n2c(-c3ccccc3)cc3c2CCCCC3)cc1
    ?	.	17%	-7.0%	.	.	.	-24%
- O=C(N/N=C/c1ccc2c(c1)OCO2)C(=O)Nc1ccccc1Cl
    .	1%	26%	.	14%	21%	.	.
- CC(C)CC(=O)Nc1ccccc1N1CCN(c2ccc(F)cc2)CC1
    -19%	2%	?	.	.	-6%	-15%[46.1 µM]	.
- CC(C)NC(=O)NNc1c(Cl)cncc1Cl
    .	-1%	-20%	.	-1%	8%	.	.
- O=C(O)C1CC(c2ccccc2)=Nc2ccccc2S1 (centres undefined)
    -1%	-1%	55%[activator]	.	7%	-5%	7%[46.1 µM]	.
- COc1cc(NC(=O)COC(=O)CNC(=O)c2ccc(C)s2)cc(OC)c1
    -15%	1%	97%[activator]	.	-10%	-9%	?	.
- CCCCn1c(N)c(N(CC)C(=O)c2cc(C)cc(C)c2)c(=O)[nH]c1=O
    8%[46.1 µM]	1%	-1%	.	-1%	-9%	?	.
- COc1ccc(CCNC(=O)C2CCN(S(=O)(=O)N3CCC(C)CC3)CC2)cc1OC
    .	-6%	-15%	.	-7%	7%	.	.
